Assay outcomes deposited in PubChem by several laboratories.
Beta cell apopt = inhibitors of cytokine-induced beta cell apoptosis, primary screen, luminescence. protection from apoptosis, % (no concentration beside the values). INS-1E cytokine-induced death, ATP luminescence, 48 h; percent of positive-control rescue, neutral wells zero. 300,000 compounds, 0.8% hits;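 active means all replicates at 75% or more, or half of them and the mean; inconclusive means half reach 75% but not the mean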;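 further: 0% = cytokine-treated negative control wells and 100% = positive control rescue; higher means more ATP so stronger rescue from cytokine killing; wells of about 40 µL received 100 nL stock; the first replicate is given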
RanGTP-Imp inh = inhibitors of RanGTP-importin-beta interaction, primary screen, biochemical, FRET, CFP-Ran, YFP-importin-beta, homogeneous; cell-free CFP-Ran/YFP-importin-beta FRET ratio; inhibition, % (concentration not given with the values); AID 2216, 2009; Ran GTPase (GTP-bound) - importin-beta complex; 300,000 compounds, 1.1% hits;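 active means most replicates above 15%; inconclusive means exactly half above 15%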;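 further: 0% = DMSO wells and 100% = Ran loaded with GDP instead of GTP; wells of about 40 µL received 100 nL stock; the first replicate is given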
A1 inh = caspase 3/7 activation in MEF A1-2A-BIM cells, primary screen, A1 inhibitor project, cell-based, luminescence, HTS | Caspase-Glo 3/7 luminescence, 3 h; percent of clofoctol response, vehicle zero | caspase activation, % (no concentration beside the values) | 330,000 compounds, 0.066% hits | AID 2462, 2010;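 active means over half of replicate activation scores above 10%, or exactly half above 10 with the replicate mean above 10; inconclusive means replicate mean below 10 yet half the replicates above 10; inactive means over half of replicates below 10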;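 further: wells of about 30 µL received 50 nL stock; many hits fall short of the cut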
Calb FLC = C. albicans growth inhibition with fluconazole, primary screen, CaCi-2 strain, Alamar Blue fluorescence | 300,000 compounds, 0.57% hits | AID 1979, 2009 | growth inhibition, % (concentration not given with the values) | C. albicans CaCi-2 (fluconazole-resistant clinical isolate) + fluconazole, 48 h;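 active means most replicates above 75%; inconclusive means exactly half above 75%; inactive means most below 75%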;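 further: all wells also contain fluconazole at 8 µg/ml as a sub-toxic cotreatment; 0% = median of DMSO wells and 100% = median of geldanamycin control wells; wells of about 8 µL received 7.5 nL stock; the first replicate is given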
Vif A3G = inhibitors of Vif binding to APOBEC3G peptide, primary screen, biochemical, TR-FRET, GST-Vif 1-94, biotin-A3G peptide, dose response retest (AID 1117319); Virion infectivity factor (Human immunodeficiency virus type 1 group M subtype B (isolate …; TR-FRET GST-Vif / biotin-A3G peptide binding; higher % means a stronger effect; test concentration not given here; strong numbers were not always called active; one-dose inhibition, %; IC50 in µM for titrated hits; 260,000 compounds, 0.57% hits;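 active means above the screen mean plus three standard deviations and confirmed in dose response; inconclusive means results disagree or hit not tested in dose response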;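 further: Vif residues 1-94 fused to GST binding biotinylated APOBEC3G peptide 110-148; 0% = full assay without inhibitor and 100% = GST in place of GST-Vif; retest series ran down from 100 µM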
rRNA inh HTS = reduced GFP signal of wild-type E. coli, primary screen, bacterial rRNA inhibitor project, GFP/RFP fluorescence, OD600, single point | E. coli WT GFP vs humanized-ribosome RFP mutants, 24 h; active compounds read low; DMSO median 0, no signal -100 | GFP signal change (wild-type ribosome), % (no concentration beside the values) | 350,000 compounds, 1.6% hits;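 active means significant combined selectivity score with lowered wild-type GFP, culture density cut under 30%, mutant RFP and density less affected; inactive means any of these conditions unmet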; further: one replicate is shown; some compounds called inactive have numbers as strong as hits
T cruzi inh = inhibitors of intracellular T. cruzi growth, primary screen, luminescence, NIH3T3 host cells. inhibition, % (test concentration not listed). 300,000 compounds, 1.4% hits. AID 1885, 2009. T. cruzi beta-gal in NIH3T3, 90 h;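 active means mean inhibition across valid replicates above about 55%, limit read from the data; inconclusive means mean below that limit but half or more replicates reach it; inactive means mean below it, under half of replicates reach it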;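 further: signal also drops with host cell toxicity which is not excluded here; 0% = plate median of DMSO wells and 100% = zero luminescence signal; higher percent means less beta-gal luminescence so fewer parasites; stock transfer was 50 nL into about 50 µL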
AF4-AF9 inh = inhibitors of AF4 peptide binding to AF9, primary screen, biochemical, AlphaScreen, biotin-AF4 peptide, FLAG-AF9, single point; Protein AF-9 (Homo sapiens), P42568; inhibition, % at 10 µM; 350,000 compounds, 0.47% hits; AID 651704, 2012;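 active means every replicate reaching a set inhibition limit, whatever the replicate mean, cut at about 25% in these data; inconclusive means mean inhibition reaches that limit but some replicates miss it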;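 further: 0% = plate neutral control median and 100% = total signal loss; the record names both 10 and 1 µM as test concentration; the first replicate is given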
Target sequence (P42568 whole entry, looked up): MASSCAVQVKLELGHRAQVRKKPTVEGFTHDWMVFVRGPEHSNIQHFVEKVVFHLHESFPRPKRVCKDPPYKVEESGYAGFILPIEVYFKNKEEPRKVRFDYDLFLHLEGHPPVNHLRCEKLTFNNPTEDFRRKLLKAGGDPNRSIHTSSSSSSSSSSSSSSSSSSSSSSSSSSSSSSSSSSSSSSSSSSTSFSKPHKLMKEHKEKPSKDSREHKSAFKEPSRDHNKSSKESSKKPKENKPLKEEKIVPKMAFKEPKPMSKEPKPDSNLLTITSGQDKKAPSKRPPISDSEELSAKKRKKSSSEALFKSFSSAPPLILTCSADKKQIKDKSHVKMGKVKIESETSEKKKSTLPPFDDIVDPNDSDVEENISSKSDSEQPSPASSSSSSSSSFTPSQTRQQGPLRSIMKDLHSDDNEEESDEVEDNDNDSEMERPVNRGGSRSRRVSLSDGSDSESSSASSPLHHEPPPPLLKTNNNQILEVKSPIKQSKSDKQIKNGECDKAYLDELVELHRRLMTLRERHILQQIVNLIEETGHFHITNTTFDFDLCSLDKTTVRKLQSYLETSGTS
rRNA inh HTS OD600 = recorded beside rRNA inh HTS, whose call it bears; OD600 change, %; measured here: OD600 growth;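 optical density of the mix in the first replicate; 0 = DMSO median and -100 = no signal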
rRNA inh HTS RFP = further read-out of rRNA inh HTS, marked with its call; RFP signal change, %; measured here: RFP humanized mutant strains;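 first replicate; 0 = DMSO median and -100 = no signal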
* hit, by the source's call; ? = inconclusive; nt = not tested or not shown. Only part of the results is shown; rates above refer to the full screens.

SMILES | Beta cell apopt | RanGTP-Imp inh | A1 inh | Calb FLC | Vif A3G | rRNA inh HTS | rRNA inh HTS OD600 | rRNA inh HTS RFP | T cruzi inh | AF4-AF9 inh
Cc1cc(C)c(NC(=O)C2CC(=O)N(c3ccc4c(c3)OCCO4)C2)c(C)c1 (stereo not given) | -7 | 1.6 | 0.3 | 5 | 2% | nt | nt | nt | 5 | nt
O=S(=O)(Nc1nc2ccccc2[nH]1)c1ccc2ccccc2c1 | -15 | 0.5 | -1.9 | -10 | 5% | nt | nt | nt | 15 | nt
COc1cc(OC)cc(C(=O)NCC(=O)N2CCCCC2)c1 | -1 | -0.2 | -0.3 | 1 | 0% | nt | nt | nt | -10 | nt
COc1ccc(-c2c(-c3cc(OC)cc(OC)c3)n(C)c3ccc(-c4cc(F)cc(OC)c4)cc23)cc1 | 7 | nt | 0.1 | nt | nt | 9 | 7 | -8.7 | nt | -1.6
O=C(COC(=O)/C=C/c1ccc(OC(F)F)cc1)NC(=O)NCc1ccccc1 | -7 | nt | 0.0 | nt | 2% | nt | nt | nt | nt | -0.2
Cc1cc(C(=O)CSCCCn2c(=O)[nH]c3ccccc32)c(C)n1C | -2 | 4.1 | -0.8 | 2 | 29% | nt | nt | nt | 5 | nt
O=C(Nc1ccc([N+](=O)[O-])cc1)N1CCc2ccccc2C1 | nt | 3.4 | -3.4 | -2 | nt | 8 | 5 | 2.1 | 1 | 0.1
CC(O)CNCc1cccc2ccccc12 (stereo not given) | 3 | -3.3 | 0.8 | 3 | nt | nt | nt | nt | -2 | nt
Cc1ncc([N+](=O)[O-])n1CC(=O)Nc1ccccc1F | -5 | -0.9 | 0.1 | -6 | -6% | 32 | 7 | 13 | -5 | -1.6
COc1cccc(-c2ncc3ccccc3c2COC(=O)c2ccc(C(C)(C)C)cc2)c1 | 15 | nt | 1.0 | nt | nt | 6 | 10 | -9.0 | nt | -0.4
O=C(C1CC1)N1CCc2cc(S(=O)(=O)NC3CCN(Cc4ccccc4)CC3)ccc21 | 4 | -1.5 | -0.1 | 0 | 5% | nt | nt | nt | 2 | nt
COc1cc2nc(CC(C)C)n(NC(=O)c3ccccc3Br)c(=O)c2cc1OC | 1 | 7.3 | -0.3 | 2 | nt | -4 | -1 | -1.5 | -4 | -0.6
O=C(c1ccc(F)cc1)N(C(=O)c1ccc(F)cc1)c1ncccn1 | -8 | 0.8 | 0.0 | ? | nt | 9 | 14 | -0.2 | -12 | 0.1
COc1ccc2c(c1)c1ncn(Cc3ccco3)c(=O)c1n2C | -13 | 4.7 | -0.7 | 5 | -2% | nt | nt | nt | -1 | nt
Brc1ccc(/C=N/c2nc3ccccc3n2CCN2CCOCC2)cc1 | 0 | 0.1 | ? | -14 | 24% | nt | nt | nt | -3 | nt
COc1cc(C(=O)N2CCN(C3CCCCC3)CC2)cc(OC)c1OC | nt | 6.8 | 0.7 | -3 | nt | 6 | 9 | -1.2 | -6 | -1.4
O=C(Nc1ccc(Cl)cc1)Nc1nnc(CSc2ccc(Cl)cc2)s1 | 7 | 0.1 | 0.2 | -26 | nt | -10 | 0 | 0.7 | -14 | -10.0
Cc1onc(-c2ccccc2Cl)c1C(=O)N1C=CC(C(F)(F)Cl)=NCC1 | -4 | -0.6 | -0.6 | -4 | -7% | nt | nt | nt | -11 | nt
O=S(=O)(Nc1nc2ccccc2nc1Cl)c1ccccc1 | -6 | -0.8 | -0.3 | 45 | nt | -10 | -9 | -5.1 | -12 | -0.2
Cc1ccccc1CSc1nc(-c2ccccc2)cc(=O)[nH]1 | -2 | -1.3 | 0.0 | -11 | 11% | 10 | 3 | -3.2 | 9 | 0.6
N#CCC(=O)NC(=O)NCC1CC1 | -6 | -0.1 | 0.8 | -1 | -4% | 5 | 12 | -6.2 | -7 | -3.8
CCCCn1nnnc1NCc1cc(OC)c(OC)c(OC)c1 | -8 | 0.9 | 0.2 | 0 | 1% | 12 | 2 | -6.3 | -3 | 7.1
Cn1c(=O)cc(OCC(=O)NCc2cccs2)c2ccccc21 | -5 | -2.9 | -0.7 | -6 | 1% | 11 | 7 | -0.4 | 16 | -3.9
O=C(/C=C/c1ccco1)OCC1CCCN2CCCCC12 (stereo not given) | 2 | 6.6 | 0.6 | 9 | nt | 18 | 19 | 4.4 | -5 | -6.5
CCCCn1cnc2cc(C)c(C)cc21 | 2 | -0.6 | 0.4 | -7 | nt | -22 | -21 | -2.1 | -20 | -4.9
Cc1cc(-c2ccc(C(C)C)c(S(=O)(=O)Nc3ccccn3)c2)on1 | -5 | 3.2 | 0.6 | 13 | nt | -2 | -10 | 2.5 | -11 | -0.3
Cc1sc2ncnc(N3CCC(C(=O)Nc4ccc(Br)cc4Br)CC3)c2c1C | 4 | -7.7 | -0.7 | -4 | nt | 9 | 1 | 1.5 | 15 | -1.0
CCOc1ccc(C2N(c3ccc(F)cc3)C(=O)C3CCCN32)cc1 (stereo not given) | -6 | 2.8 | 0.2 | -3 | 0% | 15 | 16 | 0.2 | -7 | 4.8
CC(C)C(=O)N1CCN(c2ccccc2NC(=O)c2ccc([N+](=O)[O-])o2)CC1 | -9 | -0.3 | 0.3 | -1 | nt | -2 | 5 | -2.6 | 56* | 2.4
COc1ccc(S(=O)(=O)N2CCC(C(=O)NCCC3=CCCCC3)CC2)cc1C | -2 | 4.3 | -0.5 | -16 | 74% | 8 | 2 | -1.1 | 5 | -6.9
Cc1nonc1CN(C)C(=O)CC1C(=O)NCCN1Cc1cccc(C(F)(F)F)c1 (stereo not given) | -5 | -3.6 | -0.5 | -2 | 2% | 15 | 6 | 1.3 | 0 | -2.8
CC(C)NC(=S)NN=C1CCCCCCCCCCC1 | 5 | -2.5 | 0.5 | 3 | 2% | 12 | 12 | 0.1 | -21 | 1.2
COc1ccc(NC(=O)c2c3c(nc4ccccc24)CCN(Cc2ccccc2)C3)c(OC)c1 | 16 | -5.0 | -0.4 | 13 | 1% | -1 | -7 | -0.8 | 46 | 11
CC(C)c1ccc(OCC(O)CN2CCN(c3ccccn3)CC2)cc1 (stereo not given) | -3 | -4.1 | 0.0 | -34 | nt | -18 | -7 | -1.5 | 25 | 5.3
CCOc1ccc(-c2noc(CCC(=O)NC3CCCC3)n2)cc1OC | 0 | 3.1 | -0.3 | 14 | nt | 2 | 9 | 2.7 | -12 | -2.0
COc1ccc(C(=O)NC=C2C(=O)OC(C)(C)OC2=O)cc1 | -12 | 4.1 | -0.1 | -6 | 5% | 11 | 16 | 7.7 | -6 | -0.7
OC(CNCC#Cc1ccccc1)c1ccccc1 (stereo not given) | -2 | 0.0 | -0.8 | -3 | nt | 6 | 4 | -1.6 | 0 | 8.0
COc1ccc(NS(=O)(=O)c2c(C)n(C)c(=O)n(C)c2=O)cc1 | 3 | -1.5 | 0.4 | -1 | nt | 7 | 8 | -6.7 | 3 | 1.2
Cc1cc(N2CCOCC2)n2nc(C)c(-c3ccc(Cl)cc3)c2n1 | -1 | 5.0 | 1.7 | -4 | -6% | 15 | 17 | 4.0 | 1 | -1.1
COc1ccccc1C(=O)OCC(=O)NC1CCCC1 | -1 | -0.1 | -0.3 | -17 | -2% | 9 | 3 | 1.5 | 1 | -2.7
CCOc1ccc(C(=O)NCC(=O)NCC(c2ccco2)N2CCCCC2)cc1 (stereo not given) | -3 | nt | -1.1 | nt | -9% | 8 | 15 | 1.1 | nt | -0.2
CC(C)(C)c1ccc(C(=O)N2CCC(C(=O)N3CCCCC3)CC2)cc1 | 0 | 0.0 | 0.2 | -16 | -7% | -1 | 3 | 1.0 | 2 | -2.1
CCN(CCn1cccn1)Cc1cn[nH]c1-c1cccc2ccccc12 | -18 | 1.4 | 0.1 | 7 | -11% | -3 | -2 | -5.0 | -3 | 2.1
Nc1n[nH]c2cc(=O)n(-c3ccc(Cl)cc3)nc12 | 0 | 77* | 0.5 | 3 | ? | 10 | 14 | 0.9 | -16 | 2.5
O=C(Nc1ccccc1)C1CCCCC1 | -3 | 2.9 | 0.0 | -12 | nt | nt | nt | nt | -19 | nt
CCn1c(-c2ccc(N(C)C)cc2)nc2ccccc21 | 113* | 3.4 | -4.5 | -12 | 29% | nt | nt | nt | 58* | nt
NS(=O)(=O)c1ccc(NC(=O)CN2CCN(S(=O)(=O)c3ccc(F)cc3)CC2)cc1 | 0 | -3.6 | 1.1 | -5 | 0% | 2 | -1 | -3.8 | -8 | -0.6
CC(C)(C)c1ccc(C(=O)c2c[nH]c(C(=O)NCCc3ccccn3)c2)cc1 | 5 | 0.4 | 0.3 | 15 | ? | 1 | 1 | 0.5 | -1 | -16
O=C(NCC(c1ccco1)N1CCN(c2ccccc2)CC1)C(=O)NC1CC1 (stereo not given) | -13 | 1.9 | 0.2 | -4 | 3% | 10 | 19 | -2.1 | -7 | 6.4
O=C(N/N=C/C(Cl)=C/c1ccccc1)c1ccco1 | 0 | 0.5 | -0.3 | 13 | -4% | -28 | -22 | -5.8 | -14 | 8.3
O=C(CCCC(=O)NNC(=O)Nc1ccccc1)NNC(=O)Nc1ccccc1 | nt | -2.6 | 0.5 | -4 | 2% | 16 | 20 | 1.3 | -12 | -1.4
CCCOC(=O)c1cccc(NC(=O)c2cccnc2)c1 | 3 | 5.5 | 0.2 | 3 | -3% | nt | nt | nt | 4 | nt
CCC(=O)N1CC(C)C(=O)Nc2ccccc21 (stereo not given) | 0 | 5.6 | 0.1 | 3 | -4% | nt | nt | nt | -9 | nt
O=C(CC(C(=O)NCc1ccccc1)c1nc2ccccc2c(=O)[nH]1)NCc1ccccc1 (stereo not given) | 1 | -5.0 | -1.5 | 7 | -6% | 3 | 3 | 6.3 | -4 | 1.8
CCN(CC(=O)Nc1ccc(NC(C)=O)cc1)C(=O)c1cc2ccccc2oc1=O | -8 | nt | -0.7 | nt | -3% | 4 | 4 | -0.3 | nt | -16
CC(Sc1ccccc1)C(=O)NNC(=O)c1csc(N2CCOCC2)n1 (stereo not given) | nt | -0.7 | -0.3 | 3 | -1% | 7 | 9 | 1.0 | 8 | -2.0
CCOc1cc(/C=N/N2CCN(Cc3ccccc3)CC2)ccc1O | -2 | 2.6 | 0.4 | -8 | 1% | 6 | 14 | -1.0 | 4 | 5.1
Cc1ccc(NC(=O)C(C)Sc2n[nH]c(CNc3ccccc3)n2)cc1 (stereo not given) | 5 | -2.9 | -0.5 | 3 | nt | -2 | -9 | -1.3 | 4 | 1.3
